# MLL AF4-AF9 inh: blocks AF4 peptide binding to human AF9; AlphaScreen, biotin-AF4 peptide binding to FLAG-AF9; inhibition, % at 10 µM; 0.47% of 350,000 active;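 active = every replicate reaching a set inhibition limit, whatever the replicate mean, cut at about 25% in these data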;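 note: 0% = plate neutral control median and 100% = total signal loss; the record names both 10 and 1 µM as test concentration; the first replicate is given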
# Target sequence (P42568 whole entry, looked up): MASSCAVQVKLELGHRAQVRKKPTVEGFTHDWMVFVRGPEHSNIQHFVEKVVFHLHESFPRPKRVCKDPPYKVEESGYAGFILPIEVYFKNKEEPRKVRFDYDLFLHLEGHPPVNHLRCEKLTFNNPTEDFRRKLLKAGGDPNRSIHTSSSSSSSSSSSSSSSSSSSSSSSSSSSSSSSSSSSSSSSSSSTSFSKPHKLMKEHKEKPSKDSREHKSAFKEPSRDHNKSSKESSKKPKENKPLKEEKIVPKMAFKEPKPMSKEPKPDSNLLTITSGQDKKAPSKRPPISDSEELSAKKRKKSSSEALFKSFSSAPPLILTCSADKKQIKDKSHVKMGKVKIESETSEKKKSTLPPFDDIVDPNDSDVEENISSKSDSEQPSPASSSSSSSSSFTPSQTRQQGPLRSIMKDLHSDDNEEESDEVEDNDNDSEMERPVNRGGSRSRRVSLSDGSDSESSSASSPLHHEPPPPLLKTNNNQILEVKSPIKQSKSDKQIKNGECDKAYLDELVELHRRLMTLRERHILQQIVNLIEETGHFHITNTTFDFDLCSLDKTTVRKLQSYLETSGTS
# rRNA inh HTS: inhibits bacterial ribosomal RNA function over humanized ribosomes. E. coli WT GFP vs humanized-ribosome RFP mutants, fluorescence, 24 h; active compounds read low; DMSO median 0, no signal -100. GFP signal change (wild-type ribosome), % (concentration not given with the values). 1.6% of 350,000 active. AID 720706;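 active = significant combined selectivity score with lowered wild-type GFP, culture density cut under 30%, mutant RFP and density less affected; inactive = any of these conditions unmet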; note: one replicate is shown; some compounds called inactive have numbers as strong as hits
# FGF22 binding: binders of recombinant human FGF22 by thermal shift; Q9HCT0; SYPRO orange fluorescence; percent of sucrose octasulfate shift, DMSO zero; calls only at 9.99 µM; 1.5% of 340,000 active; AID 651658;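 active = melting point raised past a set limit in the mean and every replicate; three in four hits are not shown here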
# Target sequence (Q9HCT0 whole entry, looked up): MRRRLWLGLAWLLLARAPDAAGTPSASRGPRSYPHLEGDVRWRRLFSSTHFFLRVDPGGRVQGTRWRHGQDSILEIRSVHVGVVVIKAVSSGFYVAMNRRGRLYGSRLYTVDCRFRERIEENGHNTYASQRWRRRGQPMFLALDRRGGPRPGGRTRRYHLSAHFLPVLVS
# rRNA inh HTS OD600: second read-out of rRNA inh HTS, no call of its own (marks repeat the call); OD600 change, %; measured here: OD600 growth;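 optical density of the mix in the first replicate; 0 = DMSO median and -100 = no signal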
# rRNA inh HTS RFP: second read-out of rRNA inh HTS, no call of its own (marks repeat the call); RFP signal change, %; measured here: RFP humanized mutant strains;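 first replicate; 0 = DMSO median and -100 = no signal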
# The depositor's hits bear a star; i = inactive; & = joins results of further samples. An excerpt; rates above refer to the full screens.
smiles	MLL AF4-AF9 inh	rRNA inh HTS	rRNA inh HTS OD600	rRNA inh HTS RFP	FGF22 binding
COc1ccc2c3c(n(C)c2c1)[C@H](CO)N(C(=O)C1CCCC1)CC31CCN(C(=O)CN(C)C)CC1	-2.1	0	1	-1.4	i
O=C(Nc1ccn(CCCN2CCN(c3ccccn3)CC2)c(=O)n1)OCc1ccccc1	-0.6	2	2	0.4	i
C[C@@H]1CN([C@@H](C)CO)C(=O)c2cc(NC(=O)Cc3ccccc3)ccc2O[C@@H](C)CCCCO[C@@H]1CN(C)C(=O)CCCN(C)C	-1.0	6	6	-1.7	i
O=C(C[C@@H]1CC[C@@H]2[C@H](COC[C@@H](O)CN2Cc2nccs2)O1)NCc1ccc(Oc2ccccc2)cc1	-0.3	-4	-26	-3.3	i
C[C@H]1CCCCO[C@@H](CN(C)Cc2ccc3c(c2)OCO3)[C@@H](C)CN([C@@H](C)CO)C(=O)c2cc(NS(C)(=O)=O)ccc2O1	-0.8	-1	1	-0.8	i
Cc1noc(C)c1S(=O)(=O)Nc1cccc2c1O[C@H](CN(C)Cc1ccccc1)[C@H](C)CN([C@@H](C)CO)C2=O	-1.8	3	2	-0.8	i
COc1ccc(S(=O)(=O)N2CCCCN3[C@@H](CO)[C@H](c4ccc(C5=CCCC5)cc4)[C@@H]3C2)cc1	-2.0	-47	-48	-2.6	i
Cc1cccc(-c2ccc3c(c2)C2CC3CCN2Cc2ccc3c(c2)OCO3)c1 (configuration not stated)	3.6	-18	-47	18	i
C[C@@H]1CN([C@H](C)CO)S(=O)(=O)c2ccc(C#C[C@@H](C)O)cc2O[C@H]1CN(C)C(=O)c1ccccc1	-0.9	-2	-8	-3.2	i
CC(C)CN(C(=O)CSc1nnc(-c2cccs2)n1C1CC1)C1CCS(=O)(=O)C1 (configuration not stated)	-2.5	-1	-2	-0.8	i

smiles	MLL AF4-AF9 inh	rRNA inh HTS	rRNA inh HTS OD600	rRNA inh HTS RFP	FGF22 binding
COc1nc(=O)n(C2CCCO2)cc1C (configuration not stated)	-3.3	4	9	-0.5	i
CCCC#Cc1ccc2c(c1)O[C@H](CN(C)S(C)(=O)=O)[C@H](C)CN([C@@H](C)CO)S2(=O)=O	0.4	-5	-18	-0.8	i
COc1ccc2c3c([nH]c2c1)[C@@H](CO)N(C(=O)C1CCC1)CC31CN(Cc2nccs2)C1	2.9	-5	-13	-2.6	i
COCC(=O)N(C)C[C@H]1Oc2cc(Br)ccc2S(=O)(=O)N([C@@H](C)CO)C[C@H]1C	-0.4	2	-2	-4.3	i
O=Cc1ccc([B-](F)(F)F)o1	-1.8	4	9	-5.2	i
O=C(O)[C@H]1[C@H](CO)[C@H]2Cn3c(ccc(C4=CCCCC4)c3=O)[C@H]2N1Cc1ccc2c(c1)OCO2	1.9	-6	-5	-0.4	i
O=C(NC1CCCC1)[C@@H]1[C@@H](CO)[C@@H]2Cn3c(ccc(-c4ccc(F)cc4)c3=O)[C@H]1N2Cc1cocn1	-3.1	-1	5	-1.3	i
COc1ccccc1-c1cnc2c(c1)C(=O)N([C@@H](C)CO)C[C@@H](C)[C@H](CN(C)C(=O)CC1CC1)O2	-5.3	0	9	0.8	i
Cc1ccc(S(=O)(=O)Nc2cccc3c2O[C@H](CN(C)C(=O)Nc2ccc(C(F)(F)F)cc2)[C@H](C)CN([C@H](C)CO)C3=O)cc1	-3.0	-7	-1	-1.2	i
CCCNC(=O)Nc1ccc2c(c1)C(=O)N(C)[C@H]1CC[C@H](CC(=O)OC)O[C@H]1CO2	3.8	2	0	-4.0	i

# 4 compounds drawn at random from the list so far:
smiles	MLL AF4-AF9 inh	rRNA inh HTS	rRNA inh HTS OD600	rRNA inh HTS RFP	FGF22 binding
COc1ccc(S(=O)(=O)N2CCCCN3[C@@H](CO)[C@H](c4ccc(C5=CCCC5)cc4)[C@@H]3C2)cc1	-2.0	-47	-48	-2.6	i
CCCNC(=O)Nc1ccc2c(c1)C(=O)N(C)[C@H]1CC[C@H](CC(=O)OC)O[C@H]1CO2	3.8	2	0	-4.0	i
C[C@H]1CCCCO[C@@H](CN(C)Cc2ccc3c(c2)OCO3)[C@@H](C)CN([C@@H](C)CO)C(=O)c2cc(NS(C)(=O)=O)ccc2O1	-0.8	-1	1	-0.8	i
COc1ccccc1-c1cnc2c(c1)C(=O)N([C@@H](C)CO)C[C@@H](C)[C@H](CN(C)C(=O)CC1CC1)O2	-5.3	0	9	0.8	i

# Later entries.
smiles	MLL AF4-AF9 inh	rRNA inh HTS	rRNA inh HTS OD600	rRNA inh HTS RFP	FGF22 binding
COc1ccccc1NC(=O)N[C@H]1CC[C@@H](CC(=O)NCc2ccc(Cl)c(Cl)c2)O[C@@H]1CO	3.3	-7	-19	3.3	i
COc1ccc(S(=O)(=O)Nc2ccc3c(c2)CC(=O)N([C@H](C)CO)C[C@@H](C)[C@H](CN(C)C(=O)Nc2cccc4ccccc24)O3)cc1	0.9	1	11	-0.9	i
O=C(COC(=O)CN1C(=O)C2CCCCC2C1=O)Nc1cc(F)ccc1F (configuration not stated)	9.9	5	5	-0.6	i
C[C@@H]1CN([C@@H](C)CO)C(=O)c2cc(NC(=O)Nc3ccc(C(F)(F)F)cc3)ccc2O[C@@H]1CN(C)S(C)(=O)=O	1.9	-10	-44	27	i
C[C@H](CO)N1C[C@H](C)[C@@H](CN(C)C(=O)CN(C)C)Oc2ncc(-c3ccc(F)cc3)cc2C1=O	0.0	6	12	-3.3	i
C[C@@H]1CN([C@H](C)CO)C(=O)Cc2cc(NC(=O)Nc3ccc(F)cc3)ccc2O[C@@H]1CN(C)C	-0.6	2	13	-1.9	i
C[C@@H]1CCCCO[C@@H](CN(C)C(=O)Cc2ccccc2)[C@H](C)CN([C@H](C)CO)C(=O)c2cc(NC(=O)c3ccccc3)ccc2O1	-4.7	2	0	6.0	i
CO[C@@H]1CN(C)C(=O)c2cc(NC(=O)c3ccno3)ccc2OC[C@H](C)N(S(C)(=O)=O)C[C@@H]1C	-8.3	2	-5	0.7	i
CS(=O)(=O)N1[C@H](C#N)[C@@H](c2ccc(C#Cc3cccc(F)c3)cc2)[C@H]1CO	-5.3	-27	-62	4.7	i
CCCS(=O)(=O)NC(=O)C1(C)CCCN(C(=O)COCc2ccccc2)C1 (configuration not stated)	0.5	8	18	-2.7	i

smiles	MLL AF4-AF9 inh	rRNA inh HTS	rRNA inh HTS OD600	rRNA inh HTS RFP	FGF22 binding
C[C@H]1CN([C@@H](C)CO)C(=O)c2cc(NC(=O)CCC(F)(F)F)ccc2O[C@@H]1CN(C)CC1CCCCC1	-0.5	1	10	2.4	i
Cc1ccc2cc(CNC[C@H]3O[C@@H](n4cc(C)c(=O)[nH]c4=O)C[C@@H]3O)c(N3CCOCC3)nc2c1	-0.4	7	6	0.7	i
C[C@H](CO)N1C[C@H](C)[C@@H](CN(C)C(=O)Nc2cccc3ccccc23)Oc2ccc(NS(C)(=O)=O)cc2C1=O	-0.3	2	9	1.5	i
O=C(C[C@@H]1CC[C@H](NS(=O)(=O)c2ccccc2)[C@H](CO)O1)NCc1ccc(Cl)c(Cl)c1	-0.8	-8	-12	0.8	i
C[C@@H]1CN([C@@H](C)CO)C(=O)c2cccc(NC(=O)c3ccc(-c4nccs4)cc3)c2O[C@@H]1CN(C)Cc1ccc(C(=O)Nc2ccccc2N)cc1	2.2	-1	-3	2.4	i
CC(C)C#Cc1cnc2c(c1)C(=O)N([C@H](C)CO)C[C@H](C)[C@@H](CN(C)C(=O)Nc1cccc(F)c1)O2	-0.9	-6	-8	2.2	i
Cc1c(C(=O)N2CCN(Cc3nccn3C)CC2)oc2c(F)cccc12	-7.5	4	0	3.5	i
Cc1noc(C)c1S(=O)(=O)Nc1ccc2c(c1)C(=O)N([C@@H](C)CO)C[C@@H](C)[C@@H](CN(C)Cc1ccncc1)O2	-3.9	2	10	-1.5	i
CNC(=O)C[C@@H]1CC[C@@H]2[C@@H](COc3ccc(NC(=O)c4ccccc4Cl)cc3C(=O)N2C)O1	-1.3	1	2	1.6	i
CO[C@H]1CN(C)C(=O)c2cc(NS(=O)(=O)c3ccccc3)ccc2OC[C@@H](C)N(Cc2nccs2)C[C@H]1C	-0.4	-2	-12	-1.5	i

smiles	MLL AF4-AF9 inh	rRNA inh HTS	rRNA inh HTS OD600	rRNA inh HTS RFP	FGF22 binding
COc1ccc2c3c(n(C)c2c1)[C@@H](CO)N(C(=O)NC(C)C)CC31CCN(CC2CCCCC2)CC1	0.9	1	5	-0.8	i
COc1ccc(S(=O)(=O)N(C)C[C@@H]2Oc3c(NC(=O)Nc4ccc5c(c4)OCO5)cccc3C(=O)N([C@@H](C)CO)C[C@H]2C)cc1	2.6	-5	1	1.2	i
C[C@@H]1CN([C@H](C)CO)C(=O)CCCn2cc(nn2)CO[C@@H]1CN(C)C(=O)Nc1ccc(N2CCCCC2)cc1	9.4	2	5	3.7	i
CCN(CC)C(=O)C1=C(C)N(Cc2ccc(C(C)(C)C)cc2)C(=O)C(CC(=O)NCCCN(C)C)C1 (configuration not stated)	0.2	-6	3	7.8	i
CN1C(=O)c2cc(NC(=O)c3ccccc3F)ccc2OC[C@@H]2O[C@@H](CC(=O)NCc3ccc4c(c3)OCO4)CC[C@H]21	-3.2	0	4	0.7	i
CO[C@H]1CN(C)C(=O)c2cc(NC(=O)C3CC3)ccc2OC[C@H](C)N(Cc2cncnc2)C[C@H]1C	-0.3	0	-3	-1.4	i
CCCC1(C2CCCC2)NC(=O)NC1=O (configuration not stated)	2.9	-4	1	-2.9	i
O=C(Nc1ccc(N2CCOCC2)c(S(=O)(=O)Nc2ccccc2Cl)c1)c1ccc(=O)[nH]n1	0.9	-17	-35	-3.0	i
CC(CC(=O)Nc1ccc2c(c1)c(=O)n(C)n2-c1ccc2ccccc2c1)C(F)(F)F (configuration not stated)	-0.3	-5	9	-3.2	i
C[C@H](CO)N1C[C@H](C)[C@H](CN(C)CC2CC2)OCCCC[C@H](C)Oc2ccc(NC(=O)Nc3ccccc3)cc2C1=O	14	0	-7	-0.3	i

smiles	MLL AF4-AF9 inh	rRNA inh HTS	rRNA inh HTS OD600	rRNA inh HTS RFP	FGF22 binding
C[C@H]1CCCCO[C@H](CN(C)C(=O)c2ccccc2)[C@@H](C)CN([C@@H](C)CO)C(=O)c2cc(NS(=O)(=O)c3ccc(F)cc3)ccc2O1	-0.8	-3	-9	-1.7	i
COCC(=O)Nc1ccc2c(c1)C(=O)N(C)C[C@@H](OC)[C@@H](C)CN(Cc1ccccc1OC)[C@H](C)CO2	2.4	3	-2	1.7	i
COc1ccc(NC(=O)N(C)C[C@H]2OCCCC[C@@H](C)Oc3ccc(N(C)C)cc3C(=O)N([C@H](C)CO)C[C@@H]2C)cc1	0.7&-1.0&-1.4	-4&0	2&1	0.4&-1.0	i
CC(C)C#Cc1ccc2c(c1)O[C@H](CN(C)CC1CC1)[C@H](C)CN([C@@H](C)CO)S2(=O)=O	4.2	2	15	-2.8	i
Cc1cc(C)nc(NS(=O)(=O)c2ccc(NC(=O)c3ccccc3Br)cc2)n1	-4.0	2	10	2.2	i
CC(C)COC(=O)N(C)C[C@H]1OCc2cnnn2CCCC(=O)N([C@H](C)CO)C[C@@H]1C	-0.6&-1.1&0.2	26&-2	14&4	4.7&0.0	i
C[C@H]1CN([C@@H](C)CO)C(=O)c2cccc(NC(=O)CCCCCC(=O)Nc3ccccc3N)c2O[C@H]1CN(C)Cc1ccc(Oc2ccccc2)cc1	2.4	-9	-28	1.4	i
C[C@@H]1CN([C@H](C)CO)C(=O)CCCn2cc(nn2)CO[C@H]1CN(C)C(=O)Nc1ccc2c(c1)OCO2	-0.1&-2.8&3.4	6&1	12&-1	2.0&1.7	i
Cc1ccccc1S(=O)(=O)N1C[C@H]2[C@H]3C(=O)N(c4ccccc4)C(=O)[C@H]3CC(=O)[C@H]2[C@@H]1c1ccc(Cl)cc1	-1.1	-6	-10	-4.4	i
C[C@@H]1CN([C@@H](C)CO)S(=O)(=O)c2ccc(/C=C/c3ccccc3)cc2O[C@@H]1CN(C)C(=O)NC1CCCC1	3.9	-6	-4	0.3	i

smiles	MLL AF4-AF9 inh	rRNA inh HTS	rRNA inh HTS OD600	rRNA inh HTS RFP	FGF22 binding
C[C@@H]1CN([C@@H](C)CO)C(=O)Cc2cc(NS(=O)(=O)c3ccc(Cl)cc3)ccc2O[C@H]1CN(C)Cc1ccccc1	6.3	-54	-76	-12	i
CCN1C[C@@H]2[C@@H]3C(=O)N(Cc4ccccc4)C(=O)[C@@H]3[C@](Cc3ccccc3)(C(=O)OC)N2C1=NCc1ccccc1	-1.4	-12	-18	-3.5	i
Cc1ccc2ccccc2c1NC(=O)CNCc1ccccc1	-0.1	-7	-5	3.4	i
COC(=O)[C@H](Cc1ccccc1)N1C[C@@H](N2CCC[C@H]2C)CS1(=O)=O	1.7	23	17	2.4	i
COCCCN1C(=O)C(CC(=O)NCc2cccc3ccccc23)CC(C(=O)N2CCCCCC2)=C1C (configuration not stated)	-3.2	10	3	4.2	i
O=S(=O)(N[C@H]1CC[C@@H](CCn2cc(C3(O)CCCC3)nn2)O[C@@H]1CO)c1ccc(F)cc1	6.3	1	0	-0.7	i
CC[C@H](C)[C@H]1CNC(=S)N1CC1CCN(CCCC2CCCC2)CC1	6.5	0	5	-0.4	i
CC(C)NC(=O)Nc1cccc2c1O[C@H](CN(C)Cc1ccccc1)[C@@H](C)CN([C@@H](C)CO)C2=O	-2.2	-9	-9	4.1	i

# High-throughput results deposited in PubChem BioAssay by Broad Institute.
